# Bioassay records (PubChem BioAssay)
# T. gondii: Toxoplasma gondii ME49Luc growth in HeLa cells, luciferase, no IFN-y, primary screen (AID 1259421); activity change, negative = inhibition, %; T. gondii ME49Luc in HeLa, luciferase, 72 h, no IFN-y; active compounds read low; reference of the scale and settings of repeat entries not given here; many of its hits are not listed in these tables; 6,400 compounds, 9.6% hits;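 active = activity change below -70%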;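 note: about 20 µM from a 10 mM stock diluted 500-fold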
# Active calls of the source: *; & = joins results of further samples; ! = not confirmed by another sample.
smiles,T. gondii
COC(=O)c1c(C)c2c(c(C)c1O)OC(=O)c1c(C)c(Cl)c(O)c(Cl)c1O2,-3.7
COC(=O)/C=C/c1cc(O)ccc1O,18.5
Cn1c(C#N)ccc1-c1ccc2c(c1)C(C)(C)OC(=S)N2,-80.3*
CC(=O)OCC(=O)[C@@]1(O)[C@H](OC(C)=O)CC2C3CCC4=CC(=O)C=C[C@]4(C)[C@@]3(F)[C@@H](O)C[C@@]21C (some centres not stated),-7.4
O=C1OC(c2ccc(O)cc2)(c2ccc(O)cc2)c2ccccc21,-10.8&7.0
CC(C)Cc1sc(N)nc1-c1ccc(P(=O)(O)O)o1,7.2
OCc1cncc(F)c1,11.3
CCCN(CC1CC1)c1nc(C)nc(Nc2c(Cl)cc(Cl)cc2Cl)c1Cl,34.4&41.1
CCN1C(=O)C=CC1=O,1.6
O=C(O)CCCCC(CCSCc1ccccc1)SCc1ccccc1 (configuration not stated),3.2
C=C(C)[C@@H]1CC[C@]2(C(=O)O)CC[C@]3(C)[C@H](CC[C@@H]4[C@@]5(C)CC[C@H](OC(=O)CC(C)(C)C(=O)O)C(C)(C)[C@@H]5CC[C@]43C)[C@@H]12,-18.2
CCOc1ccc(Cc2cc([C@@H]3O[C@H](CO)[C@@H](O)[C@H](O)[C@H]3O)ccc2Cl)cc1,10.3&4.9
CC(C)(C)c1cc(O)c(C(C)(C)C)cc1O,7.9
NC(=O)c1noc([C@H](CCCC2CCCCC2)CC(=O)NO)n1,-13.1
COc1cc(O)c(C(=O)c2ccccc2)cc1S(=O)(=O)O,-20.1
C[C@@H]1CN(CC(=O)Nc2ccc3c(c2)Cc2cccc(-c4cc(=O)cc(N5CCOCC5)o4)c2S3)C[C@H](C)O1,-13.2
CC1(C)S[C@@H]2[C@H](NC(=O)[C@H](N)c3ccc(O)cc3)C(=O)N2[C@H]1C(=O)O,-58.4&17.7
C[C@@H]1CC[C@]2(C(=O)O)CC[C@]3(C)C(=CCC4[C@@]5(C)CC[C@H](O)C(C)(C)C5CC[C@]43C)C2[C@H]1C (some centres not stated),8.2
CC(=O)C1(O)Cc2c(O)c3c(c(O)c2C(OC2CC(N)C(O)C(C)O2)C1)C(=O)c1c(O)cccc1C3=O (configuration not stated),-82.5*
C#C[C@]1(O)CCC2C3CCC4=CC(=O)CCC4C3C(=C)CC21CC (some centres not stated),16.2
N#C/C(=C/c1ccc(O)c(O)c1)C(=O)Nc1ccccc1,11.3
NS(=O)(=O)OC[C@@H]1C[C@@H](n2ccc3c(N[C@H]4CCc5ccccc54)ncnc32)C[C@@H]1O,-17.2
CCCC(CCC)C(=O)Nc1ccn([C@@H]2O[C@H](CO)[C@@H](O)C2(F)F)c(=O)n1,-1.7
c1ccc(C(NCc2cccnc2)(c2ccccc2)c2ccccc2)cc1,35.4&4.0
CC(=O)N(O)[C@@H]1c2cc(C#N)ccc2OC(C)(C)[C@H]1O,-86.0*!

# Later entries.
smiles,T. gondii
C=CC(=O)Nc1cccc(Nc2nc(Nc3ccc(Oc4ccnc(C(=O)NC)c4)cc3)ncc2F)c1,-38.8
CC1=NN(c2ccc(C(=O)O)cc2)C(=O)/C1=C\c1ccc(-c2cc(C)c(C)cc2[N+](=O)[O-])o1,27.1
COc1cccc(/C=N/N=C/c2cccc(OC)c2)c1,6.0
O=C(OCCN1CCOCC1)c1cccnc1Nc1cccc(C(F)(F)F)c1,-18.1
CN(C)CCCc1cc(C(=O)Nc2ccc(-c3ccncc3)cc2)ccc1O,4.7
N#Cc1c(O)c2c(-c3ccc(-c4ccccc4O)cc3)csc2[nH]c1=O,5.7
CCCCC(=O)O[C@H]1CC[C@H]2[C@@H]3CCc4cc(O)ccc4[C@H]3CC[C@]12C,-58.1
N=C(CC(O)COc1ccccc1-c1ccccc1)N1CCCCC1 (configuration not stated),10.7
CN(NC(=O)CC(=O)NN(C)C(=S)c1ccccc1)C(=S)c1ccccc1,-62.1
COc1cc(SC)ccc1C(=O)N1CCC(Cc2ccccc2)CC1,48.1&36.5
O=C(O)c1ccc(NC2OCC(O)C(O)C2O)cc1 (configuration not stated),11.7
CCCCCCCCCCCCC/C=C/[C@@H](O)[C@H](CO)NC(C)=O,16.6
CC(=O)OC[C@H]1O[C@@H](n2ccc(=O)[nH]c2=O)[C@H](OC(C)=O)[C@@H]1OC(C)=O,8.3
O=C(CCCS)NC1CCN(C(=O)COc2ccc(Cl)cc2Cl)CC1,-3.0
C1=C/COCc2cc(ccc2OCCN2CCCC2)Nc2nccc(n2)-c2cccc(c2)COC/1,-80.3*
CC1=CC2C(CC1=O)C(C)=CCC2C(C)C (configuration not stated),4.2
Cc1cc(F)c(Nc2ncnc3cc(OCc4ccccc4)ccc23)cc1O,-70.4*!
COc1ccc(-c2noc(CC(=O)O)c2-c2ccc(OC)cc2)cc1,7.3
C=C(NC(=O)C(=C)NC(=O)c1csc(C2=N[C@H]3c4csc(n4)[C@H]4NC(=O)c5csc(n5)[C@H]([C@@](C)(O)[C@@H](C)O)NC(=O)[C@H]5CSC(=N5)/C(=C/C)NC(=O)[C@H]([C@@H](C)O)NC(=O)c5csc(n5)[C@]3(CC2)NC(=O)[C@H](C)NC(=O)C(=C)NC(=O)[C@H](C)NC(=O)[C@H](C(C)CC)N[C@@H]2C=Cc3c([C@H](C)O)cc(nc3[C@H]2O)C(=O)O[C@@H]4C)n1)C(N)=O (some centres not stated),-5.3
Cc1ccccc1C(OCCN(C)C)c1ccccc1 (configuration not stated),12.4&-37.9
C=C[C@]1(C)C[C@@H](OC(=O)CSC(C)(C)CNC(=O)[C@H](N)C(C)C)[C@@]2(C)[C@H](C)CC[C@]3(CCC(=O)[C@H]32)[C@@H](C)[C@@H]1O,-20.2
COc1cc2ncnc(Sc3nnc(C)s3)c2cc1OC,12.8
O=C(O)[C@@H](S)[C@@H](S)C(=O)O,7.2
CCN(Cc1cccc(S(=O)(=O)O)c1)c1cccc(C(=C2C=CC(=[N+](CC)Cc3cccc(S(=O)(=O)O)c3)C=C2)c2ccc(O)cc2S(=O)(=O)O)c1,-44.9
NC(=S)N=Nc1ccc(NN=C(N)N)cc1,5.3

# Some of these compounds in order of heavy-atom count, rising:
smiles,T. gondii
COc1ccc(-c2noc(CC(=O)O)c2-c2ccc(OC)cc2)cc1,7.3
CCCCC(=O)O[C@H]1CC[C@H]2[C@@H]3CCc4cc(O)ccc4[C@H]3CC[C@]12C,-58.1
C=CC(=O)Nc1cccc(Nc2nc(Nc3ccc(Oc4ccnc(C(=O)NC)c4)cc3)ncc2F)c1,-38.8

# Additional structures
smiles,T. gondii
CC(C)C(=O)c1ccc(O)c(O)c1,21.3
CNC(CC(=O)O)C(=O)O (configuration not stated),7.4
OCC1OC(O)C(F)C(O)C1O (configuration not stated),8.1
O=C(NCCN1CCN(c2ncccn2)CC1)C12CC3CC(CC(C3)C1)C2,3.8
C=C[C@@H]1C[C@]1(NC(=O)[C@@H]1C[C@@H](Oc2ncc(OC)c3ccc(Cl)cc23)CN1C(=O)[C@@H](NC(=O)OC(C)(C)C)C(C)(C)C)C(=O)NS(=O)(=O)C1CC1,-73.7*
CC(=O)c1c(O)c(C)c(O)c2c1OC1=CC(=O)C(C(C)=O)C(=O)[C@@]12C (some centres not stated),16.8
Cc1ncc(NC(=O)c2ccc(CN3CCN(C)CC3)c(C(F)(F)F)c2)cc1Nc1nccc(-c2cccnc2)n1,-77.9*
CCCCCCCCNC[C@@H](O)[C@H](O)[C@@H](O)[C@@H](O)CO,17.8
N[C@@]1(C(=O)O)CC[C@H]2[C@H](C(=O)O)[C@H]21,6.8
O=C(O)C1=CO[C@@H](O[C@@H]2O[C@H](CO)[C@@H](O)[C@H](O)[C@H]2O)[C@@H]2C(CO)=CC[C@H]12,4.2&11.8
O=c1[nH]c(=O)n([C@H]2CC(O)[C@@H](CO)O2)cc1/C=C/Br (some centres not stated),8.1
COc1ccc2cc(-c3cc(-c4cc(Cl)cc(Cl)c4)nn3[C@@H](C)c3ccc(C(=O)NCCC(=O)O)cc3)ccc2c1,-64.1
CC(=O)Nc1c(I)c(C(=O)N[C@H]2C(O)O[C@H](CO)[C@@H](O)[C@@H]2O)c(I)c(N(C)C(C)=O)c1I (some centres not stated),6.3
N[C@@H](CSS(=O)(=O)O)C(=O)O,14.6
CC(=O)Oc1c(C)cc(OCC(O)CNC(C)C)c(C)c1C (configuration not stated),-4.5
O=C(O)[C@H](CC(=O)N1C[C@H]2CCCC[C@H]2C1)Cc1ccccc1,19.3
O=C(c1ccc(CN2CCOCC2)cc1)N1CCN(C2CC2)CC1,10.6
COc1ccccc1N1CCN(CC(O)COc2cccc3ccccc23)CC1 (configuration not stated),29.9&17.0
N#Cc1c(N)nc(SCc2csc(-c3ccc(Cl)cc3)n2)c(C#N)c1-c1ccc(OCCO)cc1,-62.2
O=C(O)c1cc2cc(F)ccc2[nH]1,5.5
C[C@H]1CNCCCN1S(=O)(=O)c1cccc2cncc(F)c12,-2.5
CC(C)(C)c1[nH]cnc1/C=c1\[nH]c(=O)/c(=C/c2ccccc2)[nH]c1=O,-85.5*
C[C@@H](Oc1cc(-c2cnn(C3CCNCC3)c2)cnc1N)c1c(Cl)ccc(F)c1Cl,-79.1*!
Clc1ccc(Nc2nnc(Cc3ccncc3)c3ccccc23)cc1,3.5&9.3
CCCCC(=O)N(Cc1ccc(-c2ccccc2-c2nn[nH]n2)cc1)[C@H](C(=O)O)C(C)C,4.6&-0.6

# Next section:
smiles,T. gondii
CN(C)CCN1C(=O)c2ccccc2N(C)c2ccccc21,18.3
CC1(C)CCC(CN2CCN(c3ccc(C(=O)NS(=O)(=O)c4ccc(NCC5CCOCC5)c([N+](=O)[O-])c4)c(Oc4cnc5[nH]ccc5c4)c3)CC2)=C(c2ccc(Cl)cc2)C1,-89.7*
CC(C)OC(=O)OCOP(=O)(CO[C@H](C)Cn1cnc2c(N)ncnc21)OCOC(=O)OC(C)C,-84.0*
CN[C@H](CC(=O)O)C(=O)O,8.8
COc1cc(OC)c2c(=O)cc(-c3ccccc3)oc2c1,147.5
CCOC(=O)C12CC1/C(=N\O)c1ccccc1O2 (configuration not stated),-0.2
CCC(=O)OCC(=O)[C@@]1(OC(=O)CC)[C@@H](C)C[C@H]2[C@@H]3CCC4=CC(=O)C=C[C@]4(C)[C@@]3(F)[C@@H](O)C[C@@]21C,-3.5
O=C(O)CC(=O)C(=O)O,21.8

# Of the compounds above, twelve have fluorine:
smiles,T. gondii
CC(=O)OCC(=O)[C@@]1(O)[C@H](OC(C)=O)CC2C3CCC4=CC(=O)C=C[C@]4(C)[C@@]3(F)[C@@H](O)C[C@@]21C (some centres not stated),-7.4
OCc1cncc(F)c1,11.3
CCCC(CCC)C(=O)Nc1ccn([C@@H]2O[C@H](CO)[C@@H](O)C2(F)F)c(=O)n1,-1.7
C=CC(=O)Nc1cccc(Nc2nc(Nc3ccc(Oc4ccnc(C(=O)NC)c4)cc3)ncc2F)c1,-38.8
O=C(OCCN1CCOCC1)c1cccnc1Nc1cccc(C(F)(F)F)c1,-18.1
Cc1cc(F)c(Nc2ncnc3cc(OCc4ccccc4)ccc23)cc1O,-70.4*!
OCC1OC(O)C(F)C(O)C1O (configuration not stated),8.1
Cc1ncc(NC(=O)c2ccc(CN3CCN(C)CC3)c(C(F)(F)F)c2)cc1Nc1nccc(-c2cccnc2)n1,-77.9*
O=C(O)c1cc2cc(F)ccc2[nH]1,5.5
C[C@H]1CNCCCN1S(=O)(=O)c1cccc2cncc(F)c12,-2.5
C[C@@H](Oc1cc(-c2cnn(C3CCNCC3)c2)cnc1N)c1c(Cl)ccc(F)c1Cl,-79.1*!
CCC(=O)OCC(=O)[C@@]1(OC(=O)CC)[C@@H](C)C[C@H]2[C@@H]3CCC4=CC(=O)C=C[C@]4(C)[C@@]3(F)[C@@H](O)C[C@@]21C,-3.5

# An excerpt; the hit share may differ from the screen's.
